Mtb betalactam: beta-lactam sensitization of Mtb H37Rv | M. tuberculosis H37Rv growth with meropenem, percent inhibition; hits of this screen are not shown here | inhibition, % at 25 µM | 330,000 compounds, 0.27% hits | AID 434955;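 active means about 74% or more and at least 40 points above the plate without the antibiotic, then above 30% in a dose series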;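 further: growth measured after seven days incubation then overnight dye step; 0% = bacteria only wells and 100% = bacteria with antibiotic; twin plates without the antibiotic show which effects depend on it; some results filed as inactive read as strong as hits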
The depositor's hits bear a star. An excerpt (hit frequency here may not be typical).

SMILES	Mtb betalactam
CC(NC(=O)CN(C)S(=O)(=O)c1ccc(F)cc1)C1CC2CCC1C2 (stereo not given)	9
O=C(c1cc(C(=O)N2CCN(c3ccc(F)cc3)CC2)cc([N+](=O)[O-])c1)N1CCN(c2ccc(F)cc2)CC1	2
CC1CN(C(=O)CNC(=O)COc2ccccc2)CC(C)O1 (stereo not given)	-6
O=C(C[n+]1ccccc1)N/N=C/c1cc(Br)ccc1F	-5
CC(C)c1nc(SCC(=O)NC2CCCC2)c2ccccc2n1	1
CSc1ccc(Cl)c(C(=O)N2CCN(CC(=O)N3CCCC3)CC2)c1	0
CCN(Cc1ccc(OC)c(F)c1)C(=O)/C=C/c1ccc(S(=O)(=O)N2CCOCC2)cc1	-5
CC1CCCC(C)N1C(=O)COC(=O)c1ccco1 (stereo not given)	2
C[C@H](CO)N1C[C@H](C)[C@@H](CN(C)S(=O)(=O)c2ccccc2)Oc2c(NS(=O)(=O)c3ccccc3)cccc2C1=O	-7
O=C(COC(=O)c1ccc([N+](=O)[O-])o1)NCCCc1ccccc1	89
CN(C(=O)CSc1nc2ccccc2c(=O)n1-c1ccccc1Cl)C1CCS(=O)(=O)C1 (stereo not given)	-1
Cc1ccccc1OCC(=O)OCC(=O)c1c[nH]c2ccccc12	40
Cc1ccc(NC(=O)Cc2ccccc2)cc1S(=O)(=O)N1CCOCC1	-9
Cc1ccc(S(=O)(=O)N2[C@@H](c3ccc(Br)cc3)C(C(=O)O)=CC[C@H]2c2cccc(C)c2)cc1	7
COc1ccc2cc(-c3ccsc3)ncc2c1	14
Cc1ccc(C(=O)N2CCN(C(=O)C3CCCO3)CC2)cc1 (stereo not given)	2
O=C(N[C@@H](Cc1ccccc1)C(=O)N1CCN(S(=O)(=O)c2cccc(F)c2)CC1)c1ccco1	0
CCO[C@@H]1c2c(ccc3ccc(=O)oc23)OC(C)(C)[C@H]1O	0
Cc1ccc(CN2CC(C(=O)NNC(=O)c3ccc(F)cc3)CC2=O)cc1 (stereo not given)	-1
O=C(NC(=S)N1CCOCC1)c1cn(-c2ccccc2)nc1-c1ccccc1	47
CNC(=O)c1ccc(-c2cc3onc(-c4ccccc4)c3c(=O)n2C)cc1	18
COc1cc(/C=C/C(=O)OCC(=O)c2ccc(OC(F)F)cc2)ccc1O	57
O=S(=O)(c1ccccc1)N(F)S(=O)(=O)c1ccccc1	-8
C=CCC[C@H](Cc1ccc(F)cc1)C(=O)OC[C@@H](NC(=O)[C@H](CC=C)CC(=O)NCCO)c1ccccc1	12
Nc1cc(=O)[nH]c(SCC(=O)Nc2cccc(S(=O)(=O)N3CCCCC3)c2)n1	0

Some of these compounds in order of heavy-atom count, descending:
SMILES	Mtb betalactam
Nc1cc(=O)[nH]c(SCC(=O)Nc2cccc(S(=O)(=O)N3CCCCC3)c2)n1	0
CNC(=O)c1ccc(-c2cc3onc(-c4ccccc4)c3c(=O)n2C)cc1	18
Cc1ccc(C(=O)N2CCN(C(=O)C3CCCO3)CC2)cc1 (stereo not given)	2
CCO[C@@H]1c2c(ccc3ccc(=O)oc23)OC(C)(C)[C@H]1O	0
CC1CCCC(C)N1C(=O)COC(=O)c1ccco1 (stereo not given)	2

Additional compounds:
SMILES	Mtb betalactam
COc1ccc(-c2c(-c3cc(OC)cc(OC)c3)n(C)c3ccc(-c4ccc(SC)cc4)cc23)cc1	-10
O=C(N[C@@H]1C/C=C\C[C@@H](CC(=O)N(CCO)Cc2ccccc2)C(=O)NC[C@H](c2ccccc2)OC1=O)OCC1c2ccccc2-c2ccccc21	-2
Cc1ccc(S(=O)(=O)N2CCOCC2)cc1C(=O)Nc1ccccc1N1CCOCC1	-6
CN(c1ccccc1)S(=O)(=O)c1cccc(NS(=O)(=O)c2cccc(C(=O)O)c2)c1	-7
CCN(C[C@H]1N[C@@](CC)(C(=O)OC)[C@H]2C(=O)N(C)C(=O)[C@@H]12)S(=O)(=O)c1ccc(C(F)(F)F)cc1	-12
CCOc1ccc(NC(=O)c2ccccc2NC(=O)c2cccnc2)cc1	1
COC(=O)c1ccc(Oc2nc3ccccc3n3c(C)nnc23)cc1	-1
O=C1NCCOC(=O)[C@H](Cc2ccc(F)cc2)CC/C=C/C[C@H]1CC(=O)N(CCO)Cc1ccccc1	2
CC1CCCN(C(=O)COC(=O)/C=C/c2ccc(C(F)(F)F)cc2)C1 (stereo not given)	69
COc1ccc(OC)c(CN2CCN(C(=O)CNC(=O)c3ccccc3F)CC2)c1	-2
C[C@@]12CCC3[C@@](CCC4[C@@]3(C)CCC[C@@]4(C)C(=O)NC3CCCCC3)(CC1=O)C2 (stereo not given in full)	2
CCc1ccc(NS(=O)(=O)c2c(C)nc3sc(CC)nn3c2=O)cc1	4
O=C(CNC(=O)COc1ccccc1)NCc1cccnc1	-4
CSc1ncccc1C(=O)NCc1nnc2ccccn12	3
O=C(c1ccc([N+](=O)[O-])o1)N1CCc2ccccc21	100
COc1cc(-c2noc(C)c2C(=O)NCc2ccc(C)o2)cc(OC)c1OC	1
COc1cccc(C2=CC(=O)CC(C)(C)C2)c1OC	2
CCCSc1ccc([C@H]2N[C@@](C)(C(=O)OC)[C@H]3C(=O)N(CC)C(=O)[C@@H]23)cc1	2
CC(C)(C)c1ccc(C(=O)OCc2c(-c3ccccc3)ncc3ccccc23)cc1	-10
COc1ccc(S(=O)(=O)N(C)C[C@H]2Oc3ccc(NS(=O)(=O)c4ccccc4)cc3CC(=O)N([C@H](C)CO)C[C@@H]2C)cc1	-2
CC1CCCN(CC(O)COc2ccc(-c3ccccc3)cc2)C1 (stereo not given)	3
Cc1ccc(OCC(=O)Oc2c(C)cccc2C)cc1	43
O=C(NCc1ccccc1CN1CCCC1)c1cc2cc(Cl)ccc2o1	2
COc1ccc(OCc2cc(=O)c3ccc4c(c3o2)C=CC(C)(C)O4)cc1OC	2
COc1cccc(NC(=O)COC(=O)Cn2c(C)csc2=O)c1	-12

Rewritten bar-delimited: 4 of the compounds above.
canonical_smiles | Mtb betalactam
Cc1ccc(S(=O)(=O)N2CCOCC2)cc1C(=O)Nc1ccccc1N1CCOCC1 | -6
CN(c1ccccc1)S(=O)(=O)c1cccc(NS(=O)(=O)c2cccc(C(=O)O)c2)c1 | -7
CCN(C[C@H]1N[C@@](CC)(C(=O)OC)[C@H]2C(=O)N(C)C(=O)[C@@H]12)S(=O)(=O)c1ccc(C(F)(F)F)cc1 | -12
CCOc1ccc(NC(=O)c2ccccc2NC(=O)c2cccnc2)cc1 | 1

New compounds follow
SMILES	Mtb betalactam
CCN(C(=O)COc1ccc(C(=O)c2ccccc2)cc1)c1ccccc1	-13
Cc1ccc(S(=O)(=O)N2CCOCC2)cc1NC(=O)COc1ccc(C(=O)c2ccccc2)cc1	-3
CC(C)(C)OC(=O)C[C@@H]1C/C=C\C[C@@H](CC(=O)N(CCO)Cc2ccccc2)C(=O)NC[C@H](c2ccccc2)OC1=O	-7
COC1=CC(=O)c2ccccc2C1=O	97
CC1=C/C(=C(/c2ccc(O)c(C)c2)c2ccccc2S(=O)(=O)O)C=CC1=O	-9
O=c1oc(CCCO)cc2ccc(C#Cc3ccsc3)cc12	76
Cc1ccc(S(=O)(=O)/N=C(/Nc2c(C)cccc2C)c2ccccc2)cc1	-6
C[C@H](CO)N1C[C@H](C)[C@@H](CN(C)C(=O)Nc2ccc3c(c2)OCO3)Oc2ccc(NC(=O)Nc3ccc4c(c3)OCO4)cc2C1=O	-7
O=C(CN1CCN(S(=O)(=O)c2ccc(Cl)c(Cl)c2)CC1)N1CCCC1	1
CCN(c1ccccc1)S(=O)(=O)c1ccc(C(=O)Nc2c(C)n(C)n(-c3ccccc3)c2=O)cc1	-2
O=C(Cn1cnc2c(OCc3ccccc3)ncnc21)NCCCc1ccccc1	2
COc1ccc(CCNC(=O)COC(=O)c2cc(S(=O)(=O)N3CCCC3)ccc2O)cc1	-6
Cc1ccc(F)cc1S(=O)(=O)Nc1cccc(C(=O)N2CCCC(C(N)=O)C2)c1 (stereo not given)	-9
COc1ccc(-c2c(C#Cc3ccsc3)c3cc(-c4ccc5cc[nH]c5c4)ccc3n2C)cc1	-1
Cc1ccccc1NS(=O)(=O)c1ccc(C(=O)NN2CCCCC2)cc1	0
O=C(C[C@@H]1C/C=C/CC[C@H](Cc2ccc(F)cc2)C(=O)OC[C@@H](Cc2ccccc2)NC1=O)N[C@H](CO)Cc1ccccc1	4
Cc1ccc(C)c(N2CCN(S(=O)(=O)CC34CCC(CC3=O)C4(C)C)CC2)c1 (stereo not given)	-11
COc1ccc([C@H]2CC(=O)C=C(c3ccc(C)cc3)C2)cc1OC	73
O=C(CN1C(=O)CCOc2ccccc21)Nc1ccc(Cl)c(S(=O)(=O)N2CCOCC2)c1	-7
NC(=O)c1nsc(C(=O)N(Cc2cccnc2)C(C(=O)NCc2ccccc2)c2ccc(O)cc2)c1N (stereo not given)	6
CCCCn1c(N)c(N(C)C(=O)c2ccc(OCC3CCCO3)cc2)c(=O)[nH]c1=O (stereo not given)	2
Oc1cc(Nc2ccncc2)cc2cccnc12	6
O=C(Cn1ccc(NC(=O)OCc2ccccc2)nc1=O)NCCc1ccccn1	-4
COc1ccccc1NC(=O)C(C)Sc1nccn1C (stereo not given)	0
CCCCNc1nnc(SCC(=O)c2c(N)n(CCC)c(=O)[nH]c2=O)s1	-4

Following part:
SMILES	Mtb betalactam
CC[C@@H](C)[C@@H]1CN([C@@H](C)CN2CCC[C@H]2CN2C(N)=NC[C@@H]2Cc2ccccc2)C(=N)N1CCCC1CCCC1	100
CN(CC(=O)Nc1cccc(F)c1)C(=O)c1cn(-c2ccccc2)nc1-c1ccc(F)cc1	-3
c1ccc2c(C[C@@H]3CNCCN3CCC34CC5CC(CC(C5)C3)C4)cccc2c1	95
Cn1cccc1C(=O)OCc1nc2ccccc2c(=O)[nH]1	-5
O=C(Nc1cc(S(=O)(=O)N2CCOCC2)ccc1Cl)c1ccncc1	-2
CC(C)n1ncc2c(C(=O)Nc3ccc(CC#N)cc3)cc(C3CC3)nc21	-2
C=CCc1ccccc1OCCn1nnc2ccccc21	7
COc1ccc(C(=O)NC(=S)NNC(=O)c2ccncc2)cc1Br	95
Cc1onc(-c2c(F)cccc2Cl)c1C(=O)Nc1cccc(S(=O)(=O)N2CCOCC2)c1	-2
CC(C)(C)c1ccc(NC(=O)COC(=O)c2ccc(CN3CCCC3=O)cc2)cc1	-2
N#Cc1ccccc1OCC(=O)N1CCN(S(=O)(=O)c2ccc(Cl)cc2)CC1	-3
COc1ccc(NC(=O)CN2CCN(C(C)=O)CC2)cc1S(=O)(=O)N1CCOCC1	-1
COc1ccccc1CNC(=O)COC(=O)COc1ccccc1F	4
CCNC(=S)Nc1ccc2c(c1)oc1ccccc12	-1
O=C(OCC(=O)c1ccccc1Cl)C1=NN(c2ccccc2)C(=O)CC1	0
COc1ccc(-c2sc3ccccc3c2-c2ccc(OCCN3CCCCC3)cc2)cc1	100
COc1cc(SC)ccc1C(=O)N(C)CC(=O)Nc1cccc2ccccc12	6
N#Cc1ccccc1OCC(=O)Nc1cccc(S(=O)(=O)N2CCCCCC2)c1	-1
Cc1csc(=O)n1CCC(=O)OC(C)C(=O)NCc1ccccc1 (stereo not given)	-5
CCc1ccc(-n2c(SCC(=O)NC3CCS(=O)(=O)C3)nc3ccccc3c2=O)cc1 (stereo not given)	2
O=C(CSc1nc2nn(-c3ccccc3)c(=O)c-2c2n1CCCCC2)Nc1ccc(OC(F)F)cc1	2
CCC(C)(C)C1CCc2[nH]nc(C(=O)O)c2C1 (stereo not given)	-8
O=C(NCc1ccco1)c1cc(S(=O)(=O)N2CCCCC2)ccc1Cl	3
COc1ccccc1CNC(=O)c1cc(-c2ccccc2C)n(CC2CC(c3cccc([N+](=O)[O-])c3)=NO2)n1 (stereo not given)	-3
O=C(COC(=O)c1ccc(Cl)nc1)NCCc1ccc(Cl)cc1	4

Structures listed so far with a CF3 group (2):
SMILES	Mtb betalactam
CCN(C[C@H]1N[C@@](CC)(C(=O)OC)[C@H]2C(=O)N(C)C(=O)[C@@H]12)S(=O)(=O)c1ccc(C(F)(F)F)cc1	-12
CC1CCCN(C(=O)COC(=O)/C=C/c2ccc(C(F)(F)F)cc2)C1 (stereo not given)	69

Other compounds.
SMILES	Mtb betalactam
COc1ccc(S(=O)(=O)N2CCOCC2)cc1NC(=O)CC1CC2CCC1C2 (stereo not given)	-1
CCCCN(C(=O)c1cccc(-c2ccc(OC(C)=O)cc2)c1)c1c(N)n(CCC)c(=O)[nH]c1=O	2
O=C(Nc1ccc(N2CCOCC2)cc1)c1ccc(Cl)cc1N1CCCC1=O	-4
CC(=O)c1ccc(NC(=O)CSc2nnc(-c3ccncc3)n2C2CC2)cc1	-4
O=C(c1ncn(Cc2ccccc2)c1C(=O)N1CCc2ccccc2C1)N1CCc2ccccc2C1	0
O=C(CSc1nnc(-c2cccnc2)s1)Nc1ccccc1	-1
COc1ccc(NC2=NCCCCC2)cc1	0
C[C@H](CO)N1C[C@H](C)[C@@H](CN(C)C(=O)Nc2ccc3c(c2)OCO3)Oc2c(NC(=O)C3CC3)cccc2C1=O	-1
CCOCCCN1C(=O)C(=O)N(CC(=O)N2c3ccccc3NC(=O)CC2C)C1=O (stereo not given)	1
COc1ccc(S(=O)(=O)N2CCCCC2)cc1NC(=O)CN(Cc1ccco1)Cc1ccco1	4
O=C(CSc1nnc(Cc2cccs2)n1C1CC1)NC1CCS(=O)(=O)C1 (stereo not given)	0
Cc1cc(C(=O)N2CCN(Cc3ccccc3)CC2)ccc1[N+](=O)[O-]	6
CC(CN(C)C)CN1c2ccccc2Sc2ccccc21 (stereo not given)	-7
